D2 potentiator – Beta-Arrestin HTS for Positive Allosteric Modulators of the Human D2 Dopamine Receptor: Potentiators; D(2) dopamine receptor (Homo sapiens), P14416; DiscoveRx D2 beta-arrestin cells, luminescence, 90 min; 100% = 57 uM dopamine signal; potentiation, % (test concentration not listed); hit rate 0.23% among 360,000; AID 624464, 2012; active = potentiation of 50% or more; inconclusive = 30% to 50%; inactive = 30% or less;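 further: compound concentration not given in the record; tested on top of an EC20 dose of dopamine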
Target sequence (P14416 whole entry, looked up): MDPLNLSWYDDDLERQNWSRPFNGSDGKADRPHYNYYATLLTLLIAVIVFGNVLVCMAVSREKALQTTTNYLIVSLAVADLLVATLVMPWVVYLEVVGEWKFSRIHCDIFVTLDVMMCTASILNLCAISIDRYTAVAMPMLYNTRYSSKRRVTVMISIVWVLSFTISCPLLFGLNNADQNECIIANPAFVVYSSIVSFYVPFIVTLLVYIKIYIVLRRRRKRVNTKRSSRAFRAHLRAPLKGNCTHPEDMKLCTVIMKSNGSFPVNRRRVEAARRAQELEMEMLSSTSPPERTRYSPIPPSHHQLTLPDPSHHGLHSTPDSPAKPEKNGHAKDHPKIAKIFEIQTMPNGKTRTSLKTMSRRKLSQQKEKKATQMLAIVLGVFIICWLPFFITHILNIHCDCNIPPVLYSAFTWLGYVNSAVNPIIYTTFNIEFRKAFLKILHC
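PathHunter beta-arrestin assay in DiscoveRx D2 cells. Compounds were added with an EC20 of dopamine (50 nM final) for 90 min at 37 deg C. Luminescence was read 1 h after detection reagent, with 57 uM dopamine as the EC100 control.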
TRPML1 agonist – qHTS for Agonists of the Human Mucolipin Transient Receptor Potential 1 (TRPML1); Mucolipin-1 (Homo sapiens), Q9GZU1; TRPML1-expressing cells, Ca2+ dye fluorescence, FDSS; host cell line not named in the record; reference of the full effect not given here; activation, % (concentration not given with the values); hit rate 0.12% among 410,000; AID 624414, 2012; in the data active = activation above about 50%; inconclusive = about 30% to 50%; inactive = below about 30%; further: 0% is about no effect; the text of the record puts the active cut at 80%
Target sequence (Q9GZU1 whole entry, looked up): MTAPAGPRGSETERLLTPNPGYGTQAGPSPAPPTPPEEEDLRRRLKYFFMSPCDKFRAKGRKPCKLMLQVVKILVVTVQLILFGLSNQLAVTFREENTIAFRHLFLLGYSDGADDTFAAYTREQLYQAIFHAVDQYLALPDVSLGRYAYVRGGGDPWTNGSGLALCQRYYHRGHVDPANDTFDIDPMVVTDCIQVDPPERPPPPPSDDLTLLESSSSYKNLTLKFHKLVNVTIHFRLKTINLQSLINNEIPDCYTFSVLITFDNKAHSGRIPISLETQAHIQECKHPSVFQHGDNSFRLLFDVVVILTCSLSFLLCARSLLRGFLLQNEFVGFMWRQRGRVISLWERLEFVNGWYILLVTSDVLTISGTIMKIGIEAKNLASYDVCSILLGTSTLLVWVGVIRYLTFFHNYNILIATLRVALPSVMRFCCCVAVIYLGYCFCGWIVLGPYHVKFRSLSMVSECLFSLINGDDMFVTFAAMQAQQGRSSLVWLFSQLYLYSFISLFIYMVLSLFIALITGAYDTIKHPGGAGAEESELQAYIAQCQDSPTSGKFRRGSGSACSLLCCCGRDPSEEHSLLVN
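Kinetic FDSS Ca2+ read in Tet-induced TRPML1-DL cells (ABD Ca8 dye plus quencher, 45-90 min RT loading): baseline, then compound, then 110 s agonist window; EC80 agonist 54-4 at 4uM final added afterwards for a 110 s antagonist window.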
Six1-Eya2 blk – qHTS Assay for Inhibitors of the Six1/Eya2 Interaction | Homeobox protein SIX1 (Homo sapiens) + Protein phosphatase EYA2 (Homo sapiens), … | AlphaScreen GST-Six1/His-Eya2 binding, biochemical; stronger effect = lower value; control for the full effect not named in the record | activity change, % (no concentration beside the values) | hit rate 0.56% among 360,000 | AID 651725, 2012; in the data active = activity change below about -65%; inconclusive = about -30% to -65%; inactive = above about -30%; further: on the % scale 0 is the no-effect control and ±100 the full control effect; compound concentration not given in the record
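Six1/Eya2 binding was read as AlphaScreen signal after compounds were pinned into GST-Six1 plus His-tagged Eya2 (5X stock 250/500 nM) in pH 8.0 Tris/NaCl/TCEP buffer, beads added, then incubated 1 h, 37 C, dark.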
CtBP-E1A inh – qHTS Assay for Inhibitors of the CtBP/E1A Interaction | CtBP / adenovirus E1A interaction (AlphaScreen) | AlphaScreen GST-E1A/His-CtBP binding, 1536-well; stronger effect = lower value; control for the full effect not named in the record | activity change, % (test concentration not listed) | AID 651724, 2012 | hit rate 0.49% among 340,000; in the data active means activity change below about -65%; inconclusive means about -30% to -65%; inactive means above about -30%; further: on the % scale 0 is the no-effect control and ±100 the full control effect; compound concentration not given in the record
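AlphaScreen with 125 nM GST-E1A and 125 nM His-CtBP (5X stocks) in Tris pH 8.0, 300 mM NaCl, BSA, Tween 20, TCEP. Compounds preincubated 2 h at 37 deg C, then glutathione donor/nickel acceptor beads added for 1 h at 37 deg C in dark.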
PINK1 expr mod – A Quantitative High throughput Screen to Identify Chemical Modulators of PINK1 Expression | Potency, µM (series often up to 76.6 µM), without a hit: at the top dose activation (PINK1 increase), actives largely listed as activators | PINK1 immunofluorescence, high-content cytometry, 24 h | AID 624263, 2012 | hit rate 0.2% among 410,000; active = well fitted activation curve with a large enough effect; inconclusive = small, poorly fitted or top-dose-only effect; inactive = flat fitted curve, though single readings scatter; cell line not stated here;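 further: potency means the concentration at half of the fitted maximal effect; % of control where 0% means no effect; nearly all actives have a fitted effect of over 65% in size; a mitochondrial uncoupler was the plate control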
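Stable cell line treated 24 h with compounds at 5 concentrations (CCCP controls), then fixed and immunostained for PINK1 plus nuclear and cell stains; PINK1 immunofluorescence quantified by laser-scanning microplate cytometry.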
D2 ag – Beta-Arrestin HTS for Positive Allosteric Modulators of the Human D2 Dopamine Receptor: Agonists; DiscoveRx PathHunter D2 beta-arrestin, luminescence, 90 min; 100% = 57 uM dopamine signal; hit rate 0.084% among 360,000; activation, % (test concentration not listed); D(2) dopamine receptor (Homo sapiens), P14416; AID 624465, 2012; in the data active = activation above about 40%; inconclusive = about 15% to 40%; inactive = below about 15%; further: compound concentration not given in the record; the text of the record calls up to 30% inactive
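Agonist mode: compounds alone added to overnight-plated D2 PathHunter cells for 90 min at 37 C, with 57 uM final dopamine (EC100) defining full response. Beta-arrestin recruitment detected by chemiluminescent reagent, read after 1 h at ambient temperature.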
An asterisk follows results filed as active; u = inconclusive; x = not tested or not shown; [ ] = remark or other dose.

Each structure is followed by: D2 potentiator	TRPML1 agonist	Six1-Eya2 blk	CtBP-E1A inh	PINK1 expr mod	D2 ag
> CC(C)CNc1ncnc2c1ncn2[C@H]1CN(Cc2ccco2)C[C@@H](CO)O1
 : -6	0.2	1	0	-0.1%	-3.9
> Cc1ccc(C(=O)Nc2cccc(C(=O)N3CCN(C)CC3)c2)cc1
 : -17	0.6	-1	8	u	-0.8
> CC12CN3CC(C)(CN(C1)C3c1ccc3c(c1)OCO3)C2 (stereo not drawn)
 : -2	5.2	5	10	-0.9%	-6.3
> CC1CCN(S(=O)(=O)c2ccc(S(=O)(=O)NCC3COCCO3)cc2)CC1 (stereo not drawn)
 : -8	0.9	4	8	-1.5%[38.3 µM]	-0.9
> O=C(COc1ccccc1Cl)Nc1ccc(CN2CCOCC2)cc1
 : -16	-0.1	0	0	-0.2%	-5.4
> CCc1ccc(NC(=O)C(CC)Sc2nc3cc4c(cc3c(=O)n2Cc2ccco2)OCO4)cc1 (stereo not drawn)
 : -11	0.5	2	-5	-0.5%	1.0
> CCNC(=S)NNC(=O)c1cc(-c2cccc(C)c2)nc2ccccc12
 : -26	2.0	-9	2	0.2%[38.3 µM]	-7.5
> O=[N+]([O-])/C(=C\Nc1ccc(F)cc1F)S(=O)(=O)c1ccccc1
 : -8	1.5	-3	x	3.0%	-2.9
> COc1ccc(CNC(=O)CSc2ncn[nH]2)cc1
 : 13	-0.2	-11	-7	-1.0%	-2.0
> O=C(COC(=O)c1ccc(S(=O)(=O)N2CCCC2)cc1)Nc1cccnc1Cl
 : -2	-0.1	0	-3	1.6%	-4.0
> O=C(CSc1nc2ccccc2c(=O)n1-c1ccccc1)N1CCc2ccccc21
 : -10	0.0	11	5	13%	-1.3
> S=C1NC2(CCCC2)Nc2ccccc21
 : -7	-0.5	-11	-1	-1.6%	-5.3
> N#Cc1ccc(C(=O)N2CCC3CC2c2cc(N4CCCCC4)ccc23)cc1 (stereo not drawn)
 : -4	1.1	-20	-5	-0.9%	-2.5
> COc1ccc(-c2csc3nc(-c4ccccc4F)oc(=O)c23)cc1
 : -4	1.8	2	0	0.5%	-8.6
> COc1ccc(CCNC(=O)COC(=O)c2ccc[nH]c2=O)cc1
 : 18	-0.6	4	2	0.6%[38.3 µM]	7.7
> COC(=O)NC1CCS(=O)(=O)C1 (stereo not drawn)
 : -10	0.1	6	4	1.4%[38.3 µM]	-0.5
> Cn1c(COc2ccccc2)nnc1SCC(=O)NC1CCCC1
 : -1	9.2	-3	10	1.5%	-1.1
> COc1ccccc1C(=O)NC(=O)COC(=O)c1cccc(NC(C)=O)c1
 : 0	-0.5	-3	-4	-0.4%	-4.5
> CCOC(=O)c1c(C)nn(-c2ccc(NC(=O)CSCC(=O)O)cc2)c1C
 : 1	0.4	3	8	4.5%	-0.8
> CCOc1cc(-c2nc3ccccn3c2NCC2CCCO2)ccc1O (stereo not drawn)
 : 23	0.6	-4	-4	x	2.1
> Cc1ccc(SC(C)C(=O)Nc2ccccc2-c2ccccc2)cc1 (stereo not drawn)
 : -30	0.9	17	0	u	-7.3
> CS(=O)(=O)N1CCN(c2ccccc2F)CC1
 : -9	-0.6	0	3	1.7%	-2.6
> CCN(CC)CCn1c(=S)[nH]c2cc(C(=O)NCc3ccccc3Cl)ccc2c1=O
 : -17	0.6	3	-3	-0.7%	-2.5
> Cc1c(Cc2ccccc2)c(=O)oc2c(O)c(O)ccc12
 : 18	2.7	-8	-9	1.3%	9.6
> Cc1ccc(S(=O)(=O)NCCC(=O)N2CCN(c3ccccc3)CC2)cc1C
 : -10	-0.3	12	-20	-0.8%	-5.0
> COc1cc(C(=O)NC(=S)Nc2ccccc2N2CCOCC2)cc(OC)c1OC
 : -3	1.8	-12	-28	2.6%	3.3
> Cc1cccc(C(=O)NC(C(=O)Nc2cccc(S(=O)(=O)N3CCCC3)c2)C(C)C)c1 (stereo not drawn)
 : -17	1.6	-5	-7	2.8%	-5.5
> O=C(O)c1ccc2c(=O)n3cc(C(=O)c4ccccc4O)cc(Cl)c3nc2c1
 : -8	0.5	-18	-20	-0.1%	-1.3
> Cc1c(Cl)cccc1NC(=O)c1ccco1
 : -6	0.4	7	5	-0.9%	-1.0
> CCCCS(=O)(=O)NC(=O)C1(C)CCN1C(=O)C/C=C/c1ccccc1 (stereo not drawn)
 : 0	-0.5	4	1	1.2%	-2.2
> CCC(C)NC(=O)C1(O)c2cc(Br)ccc2NC(=O)N1c1cccc(OC)c1 (stereo not drawn)
 : 1	3.8	2	0	-0.8%	5.8
> COC(=O)c1ccccc1NC(=O)CNC(=O)c1ccc(OC)cc1
 : 7	-0.3	-1	-13	2.6%	-3.5
> Cc1ccc(C2(C)NC(=O)N(CC(=O)N3CCN(C(=O)c4cccs4)CC3)C2=O)cc1 (stereo not drawn)
 : -1	-0.3	-1	3	-0.3%	0.5
> COc1ccc(/C=C(\NC(=O)c2ccc(OC)c(OC)c2)C(=O)N2CCN(C)CC2)cc1
 : 0	0.1	9	5	-2.9%	-0.9
> Cc1c(C)c2c(c(C)c1O)CCC(C)(C(=O)O)O2 (stereo not drawn)
 : 22	0.7	7	-14	1.5%	4.6
> CC1C(C#N)=C(N)OC2=C1C(=O)CC(c1ccccc1)C2 (stereo not drawn)
 : -8	-0.2	-5	-2	0.0%	-3.9
> COc1ccc(/C=C/C(=O)NCCSCc2ccco2)cc1OC
 : 4	0.5	-5	x	0.2%	0.5
> COc1ccc(CN2CCNC(=O)C2CC(=O)NCCc2cnccn2)cc1C (stereo not drawn)
 : -11	-0.2	-1	4	0.7%	-3.0
> Cc1ccc(/C=C/C(=O)Nc2ccncc2)o1
 : -9	0.4	2	10	-2.6%	3.7
> Cc1ccccc1OCC(=O)N(Cc1cccc(F)c1)C1CCS(=O)(=O)C1 (stereo not drawn)
 : -2	-0.9	1	3	3.8%	-5.8
> COCCCNCCOCCOc1ccc(C)cc1Br
 : -14	-0.7	3	7	-0.2%	-6.1
> COc1ccc(S(=O)(=O)NC(C)C(=O)NCc2cccnc2)cc1C (stereo not drawn)
 : 7	-0.1	8	-25	-0.6%	9.9
> O=C1NCCN(CC2CCN(CC3CCCC3)CC2)C1=O
 : -7	-0.2	2	-24	0.4%	-6.6
> C=CCOc1cccn2c(N(C)C(=O)c3ccncc3)c(CC)nc12
 : 1	-0.4	6	2	2.6%	-3.7
> Cc1cccc(OCC(=O)N2CCC(N3CCOCC3)CC2)c1
 : 2	-0.2	-1	-3	0.4%	-4.4
> O=C(c1cc(-c2ccc(Br)cc2)n[nH]1)N1CCN(C(=O)c2ccccc2Br)CC1
 : -11	0.0	0	x	5.6%	-0.4
> Cc1cccc(OCC(=O)OC(C)CN2CCCCC2)c1 (stereo not drawn)
 : 1	0.1	2	17	1.9%	-2.3
> CCN(CCO)c1ccc(-n2c(N)c(C(=O)OC)c3nc4ccccc4nc32)cc1
 : 23	-1.1	-17	-13	-0.9%	1.3
> Cc1ccc(Cn2c(C)nc3ccc([N+](=O)[O-])cc3c2=O)cc1
 : 16	x	0	x	2.7%	-0.4
> COc1ccc(C2CC(c3ccccc3O)=NN2C(=O)c2ccccc2)cc1OC (stereo not drawn)
 : -5	1.7	-12	x	0.2%	-0.6
> CCOc1ccc(NC(=O)C(C)O)c(NS(=O)(=O)c2ccc(CCNC(C)=O)cc2)c1 (stereo not drawn)
 : -4	-0.6	-2	8	1.3%[38.3 µM]	-2.8
> O=C(O)CCCC(=O)OCCCCc1cccs1
 : -4	0.9	1	15	-0.1%	-2.1
> COc1ccc(CN(C)C(=O)c2[nH]c(C)c(C(C)=O)c2C)c(OC)c1OC
 : -2	0.4	-1	-1	3.7%	-0.2
> Cc1ccc(S(=O)(=O)NC(C)C(c2cccs2)N2CCN(c3ccccc3)CC2)cc1 (stereo not drawn)
 : -7	0.0	-19	-13	1.5%	-5.0
> O=C(Nc1ccc2c(c1)CCC2)c1ccc(Cl)nc1
 : -4	1.9	10	-11	-0.3%	2.8
> Nc1ccc(C2(c3ccc(N)cc3)c3ccccc3C(=O)c3ccccc32)cc1
 : -6	0.9	-24	-5	12%	-3.1
> CCC(=O)Nc1nc2c(OC)ccc(C)c2s1
 : -5	-0.6	-9	1	0.3%	-1.8
> COc1ccc(C(C)=O)cc1COC(=O)CNC(=O)C1CCCCC1
 : -1	-0.5	-5	5	3.0%	1.7
> CC(NC(=O)/C(C#N)=C/c1ccc(Cl)c([N+](=O)[O-])c1)c1ccccc1 (stereo not drawn)
 : -15	0.0	-8	x	-1.8%	-2.1
> CC1CCCCC1NC(=O)CCCN1C(=O)c2ccccc2C1=O (stereo not drawn)
 : -34	1.6	2	2	-0.4%	-5.0

Taken from the entries so far (2 entries):
Each structure is followed by: D2 potentiator	TRPML1 agonist	Six1-Eya2 blk	CtBP-E1A inh	PINK1 expr mod	D2 ag
> COCCCNCCOCCOc1ccc(C)cc1Br
 : -14	-0.7	3	7	-0.2%	-6.1
> COc1ccc(S(=O)(=O)NC(C)C(=O)NCc2cccnc2)cc1C (stereo not drawn)
 : 7	-0.1	8	-25	-0.6%	9.9

(cont.)
Each structure is followed by: D2 potentiator	TRPML1 agonist	Six1-Eya2 blk	CtBP-E1A inh	PINK1 expr mod	D2 ag
> COc1ccc(O)c(C=NCC(C)N=Cc2cc(OC)ccc2O)c1 (stereo not drawn)
 : -4	-0.3	u	-21	2.5%	3.5
> N#CC(=C(O)CN1CCN(c2ccccc2F)CC1)c1nc(-c2ccc(Cl)cc2)cs1
 : -5	-1.0	2	-4	7.7%	-2.5
> CCn1c(=O)c(C(=O)NCc2ccccn2)c(O)c2ccccc21
 : -28	0.1	9	0	-1.0%	-0.6
> COc1ccc([C@H]2C[C@H](n3cc(-c4ccc(F)cc4)nn3)[C@@H](O)CN2C(=O)C2CCCCC2)cc1
 : -8	2.3	1	-20	0.7%	0.2
> CC1(C)Cc2c(C#N)c(N)sc(=S)c2CO1
 : -26	0.0	-20	9	0.6%[38.3 µM]	-5.2
> CC(=O)N/N=C/c1cc([N+](=O)[O-])ccc1OCCOc1ccccc1
 : -7	-0.3	9	-1	-0.9%	-2.0
> CSC1=N/C(=C\c2ccc(C)cc2)C(=O)S1
 : 2	0.3	-1	3	0.1%	-3.3
> COc1ccc(-c2[nH]ncc2CN2CCCC(C(=O)c3ccc(OC)cc3OC)C2)cc1 (stereo not drawn)
 : -15	0.5	-3	-2	0.7%	-3.9

From PubChem BioAssay
